UCH37 DUB inh: inhibitors of human deubiquitinating enzyme UCH37 | Q9Y5K5 | purified proteasome/UCH37, Ub-AMC cleavage fluorescence | inhibition, % (concentration not given with the values) | 330,000 tested, 0.33% active;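 active = mean of two replicates above 20%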;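 also: 0% = compound-free wells with enzyme and 100% = wells lacking proteasome; stock transfer was 100 nL into about 20 µL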
Target sequence (Q9Y5K5 whole entry, looked up): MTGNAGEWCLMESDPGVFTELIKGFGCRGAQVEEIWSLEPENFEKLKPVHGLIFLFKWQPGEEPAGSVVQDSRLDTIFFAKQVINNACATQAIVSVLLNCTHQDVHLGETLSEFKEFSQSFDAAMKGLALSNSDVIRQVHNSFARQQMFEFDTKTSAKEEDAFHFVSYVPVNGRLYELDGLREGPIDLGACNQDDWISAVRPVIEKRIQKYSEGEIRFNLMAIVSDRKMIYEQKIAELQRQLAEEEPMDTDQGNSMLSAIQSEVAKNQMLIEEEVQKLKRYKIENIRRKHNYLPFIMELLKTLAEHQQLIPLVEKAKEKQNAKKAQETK
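Material: human UCH37 enzyme supplied as purified proteasome complex / Amount: 0.15 nM proteasome as dispensed / Buffer or medium: pH 7.4 Tris-HCl (50 mM) with ovalbumin, ATP-MgCl2, DTT / Times: preincubation 30 min, reaction 25 min, room temperature / Technique: AMC fluorescence from Ub-AMC cleavage, excitation 355 nm, emission 460 nm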
Vif TR-FRET: inhibitors of Vif binding to APOBEC3G peptide, primary screen, biochemical, TR-FRET, GST-Vif 1-94, biotin-A3G peptide, dose response retest (AID 1117319). TR-FRET GST-Vif / biotin-A3G peptide binding; higher % means a stronger effect; test concentration not given here; strong numbers were not always called active. one-dose inhibition, %; IC50 in µM for titrated hits. 260,000 tested, 0.57% active;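 active = above the screen mean plus three standard deviations and confirmed in dose response; inconclusive = results disagree or hit not tested in dose response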;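 also: Vif residues 1-94 fused to GST binding biotinylated APOBEC3G peptide 110-148; 0% = full assay without inhibitor and 100% = GST in place of GST-Vif; retest series ran down from 100 µM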
MLL AF4-AF9 inh: inhibitors of human MLL-AF4/AF9 interaction; P42568; inhibition, % at 10 µM; AlphaScreen, biotin-AF4 peptide binding to FLAG-AF9; 350,000 tested, 0.47% active;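 active = every replicate reaching a set inhibition limit, whatever the replicate mean, cut at about 25% in these data; inconclusive = mean inhibition reaches that limit but some replicates miss it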;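 also: 0% = plate neutral control median and 100% = total signal loss; the record names both 10 and 1 µM as test concentration; the first replicate is given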
FGF22 binding: binders of recombinant human FGF22 by thermal shift. SYPRO orange fluorescence; percent of sucrose octasulfate shift, DMSO zero. 340,000 tested, 1.5% active. calls only at 9.99 µM. Q9HCT0;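 active = melting point raised past a set limit in the mean and every replicate; inconclusive = no clear call; three in four hits are not shown here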
Target sequence (Q9HCT0 whole entry, looked up): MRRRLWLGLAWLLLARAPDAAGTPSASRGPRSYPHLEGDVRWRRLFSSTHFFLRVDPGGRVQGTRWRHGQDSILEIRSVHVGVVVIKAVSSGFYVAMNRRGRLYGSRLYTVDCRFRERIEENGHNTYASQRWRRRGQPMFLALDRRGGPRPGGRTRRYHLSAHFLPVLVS
HNF4A DNA FP: change in binding of human HNF4 alpha to DNA | P41235 | HNF4a-FITC DNA binding, fluorescence polarization, 1 h | activity change, % at 10 µM | 360,000 tested, 0.3% active; in the data active = activity change above about 30%, passing the limit was not always enough;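 also: controls were the assay level and a saturating level of protein; the project sought stronger binding though the title names inhibitors; some compounds called inactive have numbers as strong as hits; positive values seem to mean higher polarization but the record does not say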
Target sequence (P41235 whole entry, looked up): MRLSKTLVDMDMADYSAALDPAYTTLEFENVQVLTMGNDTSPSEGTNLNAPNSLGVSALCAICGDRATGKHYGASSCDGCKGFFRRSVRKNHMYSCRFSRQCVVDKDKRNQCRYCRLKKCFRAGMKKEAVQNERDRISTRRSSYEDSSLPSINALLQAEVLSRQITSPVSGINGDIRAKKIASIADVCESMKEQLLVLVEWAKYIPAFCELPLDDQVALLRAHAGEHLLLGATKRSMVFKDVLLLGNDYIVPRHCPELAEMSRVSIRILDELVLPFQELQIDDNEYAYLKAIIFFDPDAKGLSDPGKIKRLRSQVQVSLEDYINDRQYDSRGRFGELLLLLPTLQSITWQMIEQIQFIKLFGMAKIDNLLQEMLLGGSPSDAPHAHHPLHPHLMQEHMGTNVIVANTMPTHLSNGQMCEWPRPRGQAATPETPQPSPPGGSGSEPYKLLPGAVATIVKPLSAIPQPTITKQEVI
RanGTP-Imp inh: inhibitors of RanGTP-importin-beta interaction, primary screen, biochemical, FRET, CFP-Ran, YFP-importin-beta, homogeneous. cell-free CFP-Ran/YFP-importin-beta FRET ratio. inhibition, % (no concentration beside the values). 300,000 tested, 1.1% active;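 active = most replicates above 15%; inconclusive = exactly half above 15%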;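 also: 0% = DMSO wells and 100% = Ran loaded with GDP instead of GTP; wells of about 40 µL received 100 nL stock; the first replicate is given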
Ecoli growth: blocks Escherichia coli growth; OD600, 23 h; stronger effect = lower value; OD600 absorbance (concentration not given with the values); 330,000 tested, 0.21% active;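 active = OD600 absorbance below the run mean of sample wells minus 3.6 SD, in any replicate, cut at about 0.56 in these data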;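 also: stock transfer was 300 nL into about 60 µL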
Numbers without * were called inactive; i = inactive; ? = inconclusive; . = no result given; & = joins results of further samples. The list is partial; the hit share may differ from the screen's.

UCH37 DUB inh,Vif TR-FRET,MLL AF4-AF9 inh,FGF22 binding,HNF4A DNA FP,RanGTP-Imp inh,Ecoli growth,Molecule
6.6,-2%,-3.1,i,-0.6,?,0.63,CC1(C)C2C(Cl)(Cl)C2(C)c2ccccc2N1C=O (centres undefined)
4.2,0%,.,.,2.1,.,0.74,CCc1ccc(-c2nc(-c3ccncc3)no2)cc1
3.2,3%,-53,i,-1.9,1.7,0.71,O=c1[nH]n(-c2ccccc2)c(=O)c(Cl)c1Cl
1.9,3%,-2.0,i,3.7,.,0.66,O=C(Nc1cccc(S(=O)(=O)N2CCOCC2)c1)C12CC3CC(CC(C3)C1)C2
-3.6,-43%,.,.,3.0,-6.1,0.69,COC(=O)c1nn(-c2ccc(C)cc2)c2nnc(Cc3ccccc3)c(=O)n12
-5.9,-7%,5.4,i,-3.1,3.0,0.77,O=C(Nc1nnc(-c2cccs2)o1)C1CC1
3.0,10%,-1.6,.,4.5,-1.8,0.68,COC(=O)CN1C2=NCCCN2c2ccccc21
3.1,.,0.6,i,1.8,-2.2,0.72,Cc1[nH]c2ccc(C(=O)NCCN3CCCCCC3)cc2c1C
0.3,.,.,.,0.4,-1.5,0.69,O=C(O)CCCNS(=O)(=O)c1ccc2c(c1)OCCCO2
3.3,7%,?,i,2.4,8.6,0.69,Cc1nn(-c2ccccc2)c(Cl)c1/C=C1/C(=N)N2N=C(C(C)C)SC2=NC1=O
2.7,-3%,-11,i,3.1,-0.1,0.69,CN(C)c1ccc(C(=O)N2CCCC2)cc1
.,.,2.4,i,1.6,0.0,.,CC(=O)c1ccc(N2CCN(S(=O)(=O)c3ccc4c(c3)CC(C)N4C(C)=O)CC2)cc1 (centres undefined)
1.5,1%,.,.,-0.4,0.2,0.72,Cc1ccnc2nc(C(=O)OCC(=O)NCCc3ccccc3)nn12
3.7,3%,-3.6,i,4.2,1.6,0.67,CCOC(=O)COc1ccc(S(=O)(=O)N2CCN(C(=O)OCC)CC2)cc1
1.7,3%,-0.3,i,1.8,3.4,0.68,Cc1c(NC(=O)c2cccs2)c(=O)n(-c2ccccc2)n1C
1.3,14%,0.8,i,-0.6,-1.9,0.67,c1ccc(Cn2c(NCc3ccncc3)nc3ccccc32)cc1
-1.6,1%,15,i,0.9,0.2,0.67,COc1cc(NC(=O)Cn2ccsc2=N)cc(OC)c1
.,24%,.,.,-0.3,-4.1,.,O=C(NC(=S)Nc1ccc(NC(=O)c2cccs2)cc1)c1cc2ccccc2o1
-0.5,67%,.,.,-1.3,2.8,0.7,Cc1ccc(OCCN2CCCCCC2)c(C)c1
5.7,.,1.1,i,0.6,?,0.65,Cn1cc(CC(=O)NCc2ccc(F)cc2)c2ccccc21
4.6,.,.,.,2.4,-3.8,0.75,CCS(=O)(=O)c1nc(S(=O)(=O)c2ccc(Cl)cc2)c(NCc2ccco2)s1
1.0,.,-2.1,.,-1.4,1.1,0.66,COc1cccc(-n2cn[nH]c2=S)c1
3.4,.,-19,i,3.9,1.0,0.68,COc1ccc(N2C(=O)CC(Sc3n[nH]c(-c4cccc(C)c4)n3)C2=O)cc1 (centres undefined)
4.1,?,-23,i,8.6,-2.8,0.68,COc1ccc([C@@H]2C[C@H]3CN(c4ccccc4)C(=O)[C@]34CCCN24)c(OC)c1OC
.,-3%,3.1,i,3.9,.,.,CCc1ccc(NC(=O)CN2CCN(c3ccc(OC)cc3)CC2)cc1
-7.4,.,-20,i,-0.6,1.8,0.73,CC(C)OC(=O)c1cc2c(ccn2-c2ccc(F)cc2)n1CC(=O)N1CCN(C(=O)c2ccco2)CC1
3.4,11%,10,i,-2.1,1.1,0.62,Cc1ccc(C2(c3noc(CN4CCOCC4)n3)CCCC2)cc1
2.3,.,.,.,2.0,-1.5,0.7,COc1ccc(Br)cc1S(=O)(=O)N1CCCC1
5.0,.,11,i,-2.4,-0.3,0.71,Cc1ccc([N+](=O)[O-])cc1N=C(c1ccc([N+](=O)[O-])cc1)N1CCOCC1
1.8,.,13,i,-3.8,.,0.65,Oc1cc2c(cc1O)CN(C(=S)NCCc1ccc(Cl)cc1)CCC2
6.4,.,0.7,i,3.2,1.6,0.72,Cn1ccsc1=NC(=O)c1ccc(CS(C)(=O)=O)cc1
2.4,-1%,.,.,2.8,1.2,0.72,Cc1nn(CC(=O)Nc2ccccn2)c(C)c1[N+](=O)[O-]
-2.4,1%,.,.,-2.5,5.5,0.72,CSc1nc(C)c2c(n1)N(c1cccc(C)c1)CC2
1.4,9%,.,.,-0.4,-1.3,0.69,CSc1nnc(-c2ccc(O)cc2)n1C
2.9,0%,.,.,-0.8,-1.8,0.65,CCOC(=O)N1CCN(CCC(=O)Nc2ccc(OC)cc2)CC1
.,.,1.0,.,0.1,.,.,CCC(C(=O)NC1CCCC1)n1c(-c2ccnc3ccccc23)nc2ccccc21 (centres undefined)
0.3,-15%,.,.,0.4,3.6,0.8,COCCN(C(=O)c1ccco1)c1nnc(-c2ccc(OC)c(OC)c2)s1
5.6,15%,-5.3,i,0.0,-4.1,0.68,COc1ccccc1C(=O)Nc1ccccc1SC(=O)c1ccccc1OC
.,-13%,0.3&-9.0,i,-0.1,.,.,C[C@@H]1CN([C@@H](C)CO)C(=O)c2cc(NS(C)(=O)=O)ccc2O[C@@H](C)CCCCO[C@H]1CN(C)Cc1ccc2c(c1)OCO2
1.5,0%,.,.,3.6,6.0,0.72,CN(CC(=O)OCC(=O)NC(=O)c1cccn1C)S(=O)(=O)c1ccc(Cl)cc1
2.8,-10%,3.1,i,4.4,2.9,0.65,CCc1c(C)nc2ncnn2c1Nc1ccccc1C
.,2%,0.5,i,-3.3,0.0,.,CCc1ccc(N2CCN(S(=O)(=O)CC34CCC(CC3=O)C4(C)C)CC2)cc1 (centres undefined)
1.7,.,7.3,i,5.7,0.9,0.67,O=C(Nc1ccc(Cl)cc1)[C@@H]1[C@@H]2C(=O)N(c3cccc(F)c3)C(=O)[C@@H]2[C@H]2C=CC=NN21
2.2,-2%&-6%,.,.,-4.1,0.1,0.73,COc1ccc(OC)c(-n2nnnc2SCC(=O)NCc2ccc3c(c2)OCO3)c1
3.0,-5%,1.9,i,-4.2,-1.4,0.59,OC(CN1CCN(c2cccc(Cl)c2)CC1)c1ccccc1 (centres undefined)
2.6,6%,-2.0,i,2.4,1.2,0.65,CC(C)(CNC(=O)c1ccc(NS(=O)(=O)c2ccc(F)cc2)cc1)N1CCOCC1
3.7,-6%,2.3,i,2.8,0.3,0.72,S=C(Nc1ccccc1)N(Cc1ccccc1)Cc1ccncc1
2.3,.,?,i,0.7,-1.1,0.69,COc1ccc(CN(C(=O)c2ccccc2Br)C2CCS(=O)(=O)C2)cc1 (centres undefined)
3.8,15%,.,.,28,.,0.73,CCN1C(c2ccccc2)=C(c2ccccc2)S/C1=C/C=C1\SC(=S)N(C)C1=O
-6.3,17%,-11,i,-2.6,-2.3,0.7,O=C(c1ccc(S(=O)(=O)N2CCCC2)cc1)N1CCC(CN2C(=O)c3cccc4cccc(c34)C2=O)CC1
-9.7,6%,-1.6,i,1.6,2.0,0.68,Cc1ccc(S(=O)(=O)Nc2cnc3ccccc3c2)cc1
0.2,.,?,i,0.6,2.9,0.7,O=C(Nc1cccc(S(=O)(=O)N2CCCCC2)c1)C1CC(=O)N(c2ccc3c(c2)OCCO3)C1 (centres undefined)
0.7,-8%,-4.0,i,-2.5,-0.3,0.68,Cn1c(CCNC(=O)c2ccccc2F)nnc1SCC(=O)Nc1ccccc1F
6.9,.,.,.,.,-1.4,0.77,CSC1=C(C#N)C2(CCCC2)C(C#N)=C(N)N1
2.1,.,0.2,i,0.1,2.0,0.72,CCOc1ccc(N2C(=O)CC(N(C)Cc3ccccc3)C2=O)cc1 (centres undefined)
0.5,.,0.0,i,-1.5,?,0.65,O=C(O)CCC(=O)Nc1ccc(S(=O)(=O)c2ccc(NC(=O)CCC(=O)O)cc2)cc1
-0.1,.,3.0,i,-1.0,3.5,0.68,COc1ccc(Cl)cc1NC(=O)Nc1ccc(C(=O)N2CCOCC2)cc1
3.2,.,0.1,i,1.6,.,0.68,CCOc1ccc(OCC(=O)OCc2cc(=O)n3cc(Br)ccc3n2)cc1
0.4,-6%,-5.5,i,-0.3,-4.7,0.69,Cc1cccc(OCC(=O)NCc2ccccc2)c1
-1.8,.,12,i,1.4,-4.6,0.68,COc1ccc(OCC(O)CN(CC(O)COc2ccc(OC)cc2)c2cccc(O)c2)cc1 (centres undefined)

Next section
UCH37 DUB inh,Vif TR-FRET,MLL AF4-AF9 inh,FGF22 binding,HNF4A DNA FP,RanGTP-Imp inh,Ecoli growth,Molecule
4.9,8%,7.1,i,-1.4,3.7,0.65,Cc1c(NS(=O)(=O)c2ccc(NCC3CCCO3)c([N+](=O)[O-])c2)c(=O)n(-c2ccccc2)n1C (centres undefined)
4.6,4%,.,.,2.4,4.2,0.74,CCn1c(N)c(C(=O)Nc2ccccc2C(=O)OC)sc1=S
.,-2%,-2.4,i,0.8,-2.8,.,O=C1c2nccnc2C(=O)N1c1ccc(C(F)(F)F)cc1
-4.8,-9%,1.2,i,0.0,?,0.73,COc1ccccc1N1CCN(S(=O)(=O)c2cn(C)nc2C)CC1
-177,22%,.,.,-3.2,-3.7,0.71,CC1(C)Cc2c(cnn2-c2ccccc2)-c2c1c1ccccc1n2CC(O)CCl (centres undefined)
.,3%,.,.,9.0,0.9,.,Cc1ccc(N2C(=O)C3C(C2=O)N2C(c4cccs4)C4C(=O)N(c5ccc(C)cc5)C(=O)C4N2C3c2cccs2)cc1 (centres undefined)
2.5,.,-7.8,i,1.1,3.8,0.61,C[C@H](NC(=O)[C@@H]1Cc2ccccc2CN1)C(=O)Nc1ccc2c(c1)OCCO2
1.4,.,1.3,i,-4.0,-1.7,.,CC(O)[C@H]1CNC(=O)C(=O)N1CC1CCCCC1 (some centres undefined)
8.4,-6%,.,.,-0.9,2.6,0.76,CCOC(=O)C1=C(OCc2ccc(Cl)cc2)C2C=C(C)C=CC2N=C1 (centres undefined)
-0.5,.,-4.7,i,-0.5,.,0.7,O=C(CNC(=O)c1ccc(F)cc1)NCc1ccccn1
1.7,-3%,-18,i,0.6,-0.2,0.66,CN(c1ccc(C(=O)Nc2ccc3c(c2)OCO3)cc1)S(C)(=O)=O
0.0,6%&0%,.,.,-2.8,1.6,0.71,O=C(CN(CC1CCCO1)C(=O)CCC(=O)Nc1nccs1)NCc1ccc2c(c1)OCO2 (centres undefined)
4.6,0%,.,.,-0.1,12,0.68,N#CC1(c2ccccc2)CCC(=NO)CC1 (centres undefined)
4.4,.,-1.1,i,-4.3,-5.1,.,CC(=O)C[C@H]1c2ccccc2S(=O)(=O)N1C1CCCCC1

Random excerpt: five compounds from above.
UCH37 DUB inh,Vif TR-FRET,MLL AF4-AF9 inh,FGF22 binding,HNF4A DNA FP,RanGTP-Imp inh,Ecoli growth,Molecule
2.6,6%,-2.0,i,2.4,1.2,0.65,CC(C)(CNC(=O)c1ccc(NS(=O)(=O)c2ccc(F)cc2)cc1)N1CCOCC1
3.1,.,0.6,i,1.8,-2.2,0.72,Cc1[nH]c2ccc(C(=O)NCCN3CCCCCC3)cc2c1C
.,.,1.0,.,0.1,.,.,CCC(C(=O)NC1CCCC1)n1c(-c2ccnc3ccccc23)nc2ccccc21 (centres undefined)
5.7,.,1.1,i,0.6,?,0.65,Cn1cc(CC(=O)NCc2ccc(F)cc2)c2ccccc21
.,-13%,0.3&-9.0,i,-0.1,.,.,C[C@@H]1CN([C@@H](C)CO)C(=O)c2cc(NS(C)(=O)=O)ccc2O[C@@H](C)CCCCO[C@H]1CN(C)Cc1ccc2c(c1)OCO2

Compound activity deposited in PubChem BioAssay by several laboratories.
